Source: PubChem
CSC inhib: cancer stem cell inhibition. AID 2717. inhibition, % at 7.5 µM. 300,000 tested, 1.1% active. cancer stem cell-like cells viability, luminescence;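 active = mean at 75% or more and at least half the replicates too; inconclusive = mean and replicates disagree; tested in HMLE shEcad cells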;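 also: 0% = median of negative and 100% = median of positive control wells; the first replicate is given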
PABP FP inh: blocks human PABP binding to poly(A) RNA | 290,000 tested, 1% active | inhibition, % at 35 µM | P11940 | fluorescence polarization;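 active = 50% or more with normal probe brightness, or confirmed in later tests; inconclusive = above 50% with abnormal brightness, or retests that disagree; inactive = below 50% or failed in later tests; about a fifth of its hits are not listed in these tables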;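 also: calls also rest on retests at 20 µM and on dose response follow-up; controls were probe without protein and protein plus probe with vehicle; some compounds called inactive have numbers as strong as hits; many hits fall short of the cut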
Target sequence (P11940 whole entry, looked up): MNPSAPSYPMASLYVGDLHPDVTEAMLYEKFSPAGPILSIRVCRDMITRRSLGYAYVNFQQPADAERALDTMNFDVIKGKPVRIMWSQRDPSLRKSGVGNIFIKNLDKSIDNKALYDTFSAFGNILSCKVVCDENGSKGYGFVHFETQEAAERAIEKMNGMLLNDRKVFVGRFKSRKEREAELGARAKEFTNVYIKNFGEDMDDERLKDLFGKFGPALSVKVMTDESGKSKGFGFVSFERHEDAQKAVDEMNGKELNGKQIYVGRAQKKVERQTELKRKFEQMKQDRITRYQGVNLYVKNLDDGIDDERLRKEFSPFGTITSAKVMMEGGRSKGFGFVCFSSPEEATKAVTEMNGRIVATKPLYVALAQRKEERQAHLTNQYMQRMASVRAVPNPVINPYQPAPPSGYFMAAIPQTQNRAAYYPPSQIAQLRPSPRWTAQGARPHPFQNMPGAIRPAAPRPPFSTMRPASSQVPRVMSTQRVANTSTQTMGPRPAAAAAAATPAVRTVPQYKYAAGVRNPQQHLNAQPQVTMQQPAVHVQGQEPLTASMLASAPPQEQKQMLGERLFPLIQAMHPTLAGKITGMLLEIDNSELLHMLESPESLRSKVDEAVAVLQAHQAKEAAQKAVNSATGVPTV
MT1-MMP act inh: inhibitors of human MT1-MMP activation; P50281; HT1080 RFP-PRO-GFP cells, GFP/RFP ratio fluorescence, overnight; percent of plate control window, DMSO zero; GFP/RFP ratio change, % at 20 µM; 360,000 tested, 0.061% active;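 active = GFP/RFP ratio change of at least 30% with cell ATP level not reduced by more than half and red fluorescence within 50% of control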; also: strong numbers were not always called active
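Assay system: HT1080 RFP-PRO-GFP cells | Dosing: 20 µM single dose, 1% DMSO | Incubation: Cells overnight before dosing, compound overnight, 37 °C, 5% CO2 | Evaluation: GFP/RFP fluorescence ratio | Control set: DMSO-only wells and HT1080 RFP-L50D-GFP cell wells as references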
eIF4H inh: inhibitors of RNA binding by human eIF4H. inhibition, % at 35 µM. eIF4H fluorescence polarization binding assay. 290,000 tested, 0.94% active. Q15056;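 active = 50% or more with normal probe brightness, or confirmed in later tests; inconclusive = above 50% with abnormal brightness, or retests that disagree; inactive = below 50% or failed in later tests; about a fifth of its hits are not listed in these tables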;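 also: calls also rest on retests at 20 µM and on dose response follow-up; 0% = protein and probe with vehicle and 100% = probe without protein; strong numbers were not always called active; many hits fall short of the cut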
UUG fidelity: alters start codon recognition fidelity in yeast; 350,000 tested, 0.13% active; activity score, % at 18.7 µM; S. cerevisiae UUG-firefly luciferase reporter, luminescence/redox ratio;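 active = replicate mean at a twofold rise or more, about +100% in these data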;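 also: firefly luciferase made from a UUG start codon reports start codon fidelity; reporter light over untreated wells divided by growth signal over untreated wells; some hits fall short of that in this replicate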
Env fusion inh: inhibitors of HIV Env-mediated cell fusion; HeLa-JRFL Env/CEM21 cell fusion, luciferase; inhibition, % at 12.3 µM; 360,000 tested, 1.1% active; AID 651610;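 active = mean replicate inhibition score of at least 50 and every replicate individually at or above 50; inconclusive = only one of the two criteria met; inactive = mean below 50 and not all replicates reaching 50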;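 also: 0% = plate neutral controls and 100% = maraviroc near 300 nM; one replicate is shown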
Rce1 inh: yeast Ras-converting enzyme inhibition | Q03530 | yeast membranes, quenched prenylated peptide cleavage fluorescence | calls only | 290,000 tested, 0.27% active | AID 2563;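 active = fall in fluorescence gain of 50% or more versus controls, with final raw signal at or below 3038400; inconclusive = same 50% fall but final raw signal above 3038400; inactive = fall in fluorescence gain under 50%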;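 also: plate controls were neutral control wells for no effect and wells lacking membranes for full effect; tested at 10 µM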
Target sequence (Q03530 whole entry, looked up): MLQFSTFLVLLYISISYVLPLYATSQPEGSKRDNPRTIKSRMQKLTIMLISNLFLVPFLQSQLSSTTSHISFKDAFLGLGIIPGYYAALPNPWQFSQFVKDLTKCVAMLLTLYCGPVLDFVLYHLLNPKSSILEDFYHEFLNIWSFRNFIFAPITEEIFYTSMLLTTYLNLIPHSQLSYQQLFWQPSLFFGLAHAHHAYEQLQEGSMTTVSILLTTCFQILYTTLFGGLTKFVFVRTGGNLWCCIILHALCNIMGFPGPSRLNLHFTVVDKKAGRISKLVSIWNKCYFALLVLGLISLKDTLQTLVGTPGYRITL
MT1-MMP act inh RFP: second read-out of MT1-MMP act inh, no call of its own (marks repeat the call); RFP signal change, %; measured here: RFP expression control read;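 0 = vehicle wells; hits needed this value within 50% of zero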
* hit, by the source's call; i = inactive; u = inconclusive; x = no result given.

SMILES	CSC inhib	PABP FP inh	MT1-MMP act inh	MT1-MMP act inh RFP	eIF4H inh	UUG fidelity	Env fusion inh	Rce1 inh
CCSc1nnc([C@H](C)NC(=O)OC(C)(C)C)o1	-1	-7	2	2	5	-21	-146	i
O=C(CN1C(=O)CCS(=O)(=O)c2ccccc21)Nc1ccc(Cl)cc1	-7	0	1	0	5	-10	0	i
CCC1NC(=S)N(C2CCCCC2)C1=O (stereo unspecified)	-16	-6	-2	4	-8	-29	-30	i
CCCn1nnc(NC(=O)/C=C/c2ccc(C(C)C)cc2)n1	36	10	4	-9	5	-3	-15	i
Cc1ccc(-n2c(C)cc3c2CCCC3=O)cc1	11	21	3	-5	20	-17	-31	i
CCCNC(=O)C12CCC(C)(c3nc4cc(C)c(C)cc4nc31)C2(C)C (stereo unspecified)	-9	1	-6	-3	-5	10	26	i
CC1CCN(C(=O)COC(=O)Cc2ccc(Br)cc2)CC1	-10	0	1	5	-5	6	6	i
O=C(c1ccccc1)N1CCCCC(Cl)C1=O (stereo unspecified)	-8	15	-2	2	-4	14	11	i
COc1ccc(NS(=O)(=O)c2ccc3oc(=S)[nH]c3c2)cc1	13	1	-3	-7	-2	x	20	i
Cc1cc(C(F)(F)F)nc(SCc2ccc(C(=O)O)o2)n1	4	19	-1	3	14	-14	-29	i
CC(C)Cc1nnc(NC(=O)CCC(=O)N2CCOCC2)s1	-9	-5	0	3	3	-1	x	i
CC(=O)NC1(C(F)(F)F)N=C2SCCN2C1=O (stereo unspecified)	-9	-10	1	2	1	-13	47	i
COC(=O)CCCC1=CC2=CC(=O)C(C)(OC(=O)c3cccs3)C(=O)C2=CN1c1cccc(C#N)c1 (stereo unspecified)	14	u	-1	8	u	-11	x	i
COc1ccc(S(=O)(=O)N2CCN(CC(=O)Nc3cc(C(F)(F)F)ccc3Cl)CC2)cc1	0	-10	1	-2	-4	-10	x	i
N#C/C(=C(/O)c1cccs1)c1nc2ccccc2[nH]1	11	1	-1	-4	-9	-32	-27	i
Nc1cc(OC(=O)c2ccc(F)cc2)nn1S(=O)(=O)c1ccccc1	18	12	1	4	6	1	6	i
Cc1nc([N+](=O)[O-])cn1CC(=O)c1ccc(Br)cc1	-9	x	3	4	x	-11	-9	i
O=C(c1cc(S(=O)(=O)N2CCOCC2)ccc1F)N(Cc1nnc(-c2ccccc2Cl)o1)C1CC1	-14	x	0	-6	x	-7	21	i
CCOc1cc(N2CCOCC2)c(OCC)cc1NC(=O)COC(=O)c1ccc(OC)c([N+](=O)[O-])c1	x	x	6	5	x	-12	-23	x
Cc1nc(-c2cccnc2)sc1C(=O)Nc1ccc(C(F)(F)F)cc1	24	4	5	-5	-5	-6	16	i
CCOC(=O)c1nnn(-c2nonc2N)c1COc1cc(C)c(Cl)c(C)c1	1	2	4	-4	-10	6	x	i
Cc1cccc(NC(=O)c2ccc(OCC(=O)NCc3ccccc3)cc2)c1C	x	12	-2	-2	2	-8	17	i
C#CC(CC)(CC)NC(=O)c1cc(S(=O)(=O)N2CCCCC2)ccc1N1CCOCC1	x	x	-4	-2	x	8	8	x
Cn1c(Cn2nnc3ccccc32)nnc1SCC(=O)N1c2ccccc2Sc2ccccc21	-17	-5	3	-5	-4	-15	x	i
COc1ccc(C)cc1NC(=O)CN1C(=O)C2CC=CCC2C1=O (stereo unspecified)	-16	x	-2	-1	x	-11	x	x
(list continues)
SMILES	CSC inhib	PABP FP inh	MT1-MMP act inh	MT1-MMP act inh RFP	eIF4H inh	UUG fidelity	Env fusion inh	Rce1 inh
CC(=O)c1cc(-c2ccccc2)n(CC(=O)NC2CCCCC2)c1C	x	-2	2	3	-1	x	-1	i
CSc1nc(SC)c2c3c(oc2n1)COC(C)(C)C3	5	5	-4	0	-9	-20	-25	i
CN(C)C(=S)SCC(=O)NC(=O)NC(C)(C)C	-11	9	2	2	1	-17	9	i
CCOC(=O)CSc1nc2c(cnn2-c2ccc(Cl)cc2)c(=O)[nH]1	0	4	1	3	-2	-2	7	i
O=C(NCC1CCCO1)c1cc2c(s1)CS(=O)(=O)C2 (stereo unspecified)	-12	-2	-6	1	-4	-24	21	i
CC(=O)c1ccc(S(=O)(=O)Nc2ccc(C(=O)NCC(c3ccco3)N3CCCC3)cc2)cc1 (stereo unspecified)	x	x	-3	9	x	1	-7	x
CCCCc1nc(SCC(=O)N2CCOCC2)c2c(=O)n(C)c(=O)n(C)c2n1	-6	2	-3	0	2	-12	-11	i
Cc1ccc(/C=C/C(=O)NCCCN2CCN(CCCNC(=O)/C=C/c3ccc(C)o3)CC2)o1	-3	-2	6	10	17	x	x	i
CCc1ccccc1NC(=O)CSc1nc2n[nH]c(C)c2c(=N)n1-c1ccc(OC)cc1	x	-9	0	-6	-7	-8	x	x
CC1CCCCC1NC(=O)c1cncc(Br)c1 (stereo unspecified)	x	-5	-3	-1	-9	-5	u	i
CN1CCN(C(=O)c2ccc3c(c2)N(Cc2ccc(F)cc2)C(=O)c2ccccc2S3=O)CC1 (stereo unspecified)	-10	-6	-4	3	-11	-5	-6	i
COC(=O)/C=C/c1ccc2c(c1)S(=O)(=O)N(Cc1ccc(OC)cc1)[C@H]2CC(=O)OC	3	x	1	-1	x	-12	10	i
Cc1ccc([C@H]2C[C@@H](O)[C@H](n3cc(C4CC4)nn3)CN2CC2CCCCC2)cc1	x	x	-8	-11	x	-8	11	x
CCC(=O)Nc1ccc(NC(=O)c2cc3ccccc3o2)c(OC)c1	-2	2	2	1	-8	0	-26	x
COc1ccc(Cl)cc1NC(=S)N1CCN(C(=O)c2ccco2)CC1	-5	-14	-1	4	-2	x	x	i
COC(=O)CSc1nc(NCc2ccccc2)nc(N(C)C)n1	-5	-3	5	6	0	-14	12	i
O=C(c1ccc([N+](=O)[O-])cc1)N1CCOC12CCN(c1ncc(C(F)(F)F)cc1Cl)CC2	-9	-8	4	1	6	-6	x	i
CCCNC(=O)COC(=O)c1ccc(S(=O)(=O)N2CCCC2)cc1	-10	4	9	3	23	x	0	i
COc1ccc(NS(=O)(=O)c2cccc(C(=O)NC3CCN(Cc4ccccc4)CC3)c2)cc1	16	-2	0	-14	-17	-6	32	i
O=C(NC1CCN(Cc2ccccc2)C1)c1cc(COc2ccc(F)cc2F)on1 (stereo unspecified)	-6	2	2	2	0	x	-9	x
O=C(COC(=O)/C=C/c1ccc(S(=O)(=O)N2CCOCC2)cc1)Nc1ccccc1F	-20	x	0	2	x	-9	6	x
COc1ccc(NS(=O)(=O)c2cc(-c3cnc(C4CC4)o3)ccc2C)cc1	80*	6	-8	-18	-1	-12	31	i
Cc1ccc(-c2csc3nc(C)n(N)c(=O)c23)o1	3	7	1	2	-10	-7	-107	i
COC(=O)/C(=C/c1ccc(OC)cc1)NC(=O)c1ccco1	-7	5	1	3	0	0	6	i
CC(=O)c1ccc(OCc2cc(C(=O)N3CCOCC3)no2)cc1	-1	-7	2	1	-8	-8	-35	i

In another format: 4 of the compounds above.
| molecule | CSC inhib | PABP FP inh | MT1-MMP act inh | MT1-MMP act inh RFP | eIF4H inh | UUG fidelity | Env fusion inh | Rce1 inh |
| --- | --- | --- | --- | --- | --- | --- | --- | --- |
| COc1ccc(Cl)cc1NC(=S)N1CCN(C(=O)c2ccco2)CC1 | -5 | -14 | -1 | 4 | -2 | x | x | i |
| O=C(NCC1CCCO1)c1cc2c(s1)CS(=O)(=O)C2 (stereo unspecified) | -12 | -2 | -6 | 1 | -4 | -24 | 21 | i |
| CCc1ccccc1NC(=O)CSc1nc2n[nH]c(C)c2c(=N)n1-c1ccc(OC)cc1 | x | -9 | 0 | -6 | -7 | -8 | x | x |
| CN1CCN(C(=O)c2ccc3c(c2)N(Cc2ccc(F)cc2)C(=O)c2ccccc2S3=O)CC1 (stereo unspecified) | -10 | -6 | -4 | 3 | -11 | -5 | -6 | i |

Following part
SMILES	CSC inhib	PABP FP inh	MT1-MMP act inh	MT1-MMP act inh RFP	eIF4H inh	UUG fidelity	Env fusion inh	Rce1 inh
O=C(Nc1cc(Sc2nc3ccccc3s2)cc([N+](=O)[O-])c1)c1ccccc1F	61	-6	-8	-14	2	-3	-11	i
CC(=O)c1cccc(S(=O)(=O)NC2CCSc3ccccc32)c1 (stereo unspecified)	-2	-3	1	-1	-5	-4	14	i
CC(C)C(c1nnnn1C1CCCCC1)N1CCc2ccccc2C1 (stereo unspecified)	-5	-4	-4	2	-4	x	x	i
CCOC(=O)[C@H]1[C@H]2COc3ccccc3[C@@H]2N2C(=O)CN(Cc3ccccc3)C(=O)[C@@]12C	-10	x	2	1	x	8	-67	x
COc1cccc(C(c2sc3ncnn3c2O)N2CCN(C(=O)c3ccco3)CC2)c1 (stereo unspecified)	3	20	0	2	4	-15	4	i
CC(C)CCSc1nc2[nH]ncc2c(=O)[nH]1	-4	-11	1	2	-8	8	-20	i
Cc1cccc(N(CC(=O)NCCc2ccccc2)C(=O)CCC(=O)Nc2ccccn2)c1C	x	6	3	-3	-8	-6	-7	i
COC(=O)C1CCN(Cc2cn(Cc3ccccc3)nc2-c2cc3ccccc3o2)CC1	3	2	1	-3	-5	x	u	i
O=C(O)CC(NC(=O)/C(=C/c1ccccc1)NC(=O)c1ccccc1)c1ccccc1 (stereo unspecified)	-6	-1	-2	0	7	x	-5	i
O=C(O)c1cc(C(=O)C2CC2)c[nH]1	-8	-16	2	8	-1	x	9	i
CCc1nnc(NC(=O)CSc2nc(N)c(NC(=O)c3ccc(OC)cc3)c(=O)[nH]2)s1	-9	1	3	5	-12	-15	-27	i
O=C(CN1CCOCC1)N1N=C(c2cccs2)CC1c1cccs1 (stereo unspecified)	-19	-2	1	3	-8	13	13	i
CN(Cc1ccccc1Cl)C(=O)c1cnccc1C(F)(F)F	-6	5	-4	-2	-6	-15	-4	i
COc1ccc(-c2noc(CN3CCC(Cc4ccccc4)CC3)n2)cc1	-5	-7	1	2	-11	x	x	i
Cc1cccc(NC(=O)COC(=O)Cc2c[nH]c3ccccc23)c1C	3	-7	0	5	-17	x	-3	i
O=C(CN1CCOCC1)Nc1nc2ccc(F)cc2s1	-10	7	-3	0	-8	-23	x	i
CC(=O)Nc1ccccc1Oc1ccccc1	3	-19	3	2	-12	3	-16	i
O=c1c2c(-c3ccc([N+](=O)[O-])cc3)csc2nc2n1CCC2	-5	-17	1	3	5	-33	x	i
CC(C)c1ccc(NC(=O)Cc2cn(C)c3ccccc23)cc1	1	4	1	-1	-14	x	11	i
COC(=O)c1c(C)oc(C)c1S(=O)(=O)NC(C)(C)C	-12	3	2	2	-1	x	8	i
COc1ccc(CNC(=O)CN(C(=O)CCC(=O)Nc2ccccn2)c2cccc(C)c2C)cc1	-12	-10	-6	-3	-1	13	2	x
Cc1ccc(N=Cc2ccc[nH]2)c(O)c1	-13	-2	-3	7	-6	-24	-67	i
OCCCc1ccc(O)c(O)c1	-9	-1	4	1	9	-13	x	i
CCCCOc1ccccc1C(=O)NNC(=S)NC(=O)c1ccccc1[N+](=O)[O-]	20	-1	1	-6	6	-25	8	i
COc1ccc(C)cc1S(=O)(=O)Nc1ccc(F)cc1	-14	-6	-4	-5	1	-16	-48	i
CCCc1c(O)nc(SCCN(CC)CC)[nH]c1=O	-11	6	-2	1	-14	x	-23	i
COc1cc(C(=S)N2CCOCC2)cc(OC)c1OC(=O)Cc1ccc(F)cc1	x	-6	8	7	-7	-18	4	i
CC(NC(=O)COC(=O)c1ccc([N+](=O)[O-])o1)c1ccccc1 (stereo unspecified)	x	x	1	-1	x	-4	-2	x
O=C(COC(=O)c1nc(Cl)ccc1Cl)NC(=O)c1ccccc1	-7	5	0	2	2	-4	-41	i
CCn1nnc(NC(=O)c2ccc(Br)o2)n1	-15	0	2	5	1	-4	-8	i

An excerpt, so the mix of outcomes need not match the whole.
